Assay outcomes deposited in PubChem BioAssay by several laboratories.
LANA-H2B inh: blocks KSHV LANA binding to histone H2A/H2B | Q9QR71 | cell-free LANA-H2A/H2B peptide, fluorescence polarization | inhibition, % (concentration not given with the values) | actives 0.6% (n = 320,000); in the data active = inhibition mostly above about 10%, no sharp cut-off; inactive = mostly below about 6.7%;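 note: stock transfer was 7.5 nL into about 10 µL; 0% = median of vehicle wells and 100% = median of positive control wells; one replicate is shown; the record names a cut of 25% in any replicate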
Beta2AR agonist: agonists of human beta-2 adrenergic receptor inducing internalization; P07550; Am2.2-beta2AR cells, FAP receptor internalization, flow cytometry; reference of the scale not given here; response, % (no concentration beside the values); actives 0.43% (n = 340,000);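 active = response above a set limit, near 3 SD of response in nonfluorescent compounds, cut at about 42% in these data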;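 note: stock transfer was 100 nL into about 11 µL; a reference agonist was the positive control; negative values mostly stem from fluorescent compounds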
Target sequence (P07550 whole entry, looked up): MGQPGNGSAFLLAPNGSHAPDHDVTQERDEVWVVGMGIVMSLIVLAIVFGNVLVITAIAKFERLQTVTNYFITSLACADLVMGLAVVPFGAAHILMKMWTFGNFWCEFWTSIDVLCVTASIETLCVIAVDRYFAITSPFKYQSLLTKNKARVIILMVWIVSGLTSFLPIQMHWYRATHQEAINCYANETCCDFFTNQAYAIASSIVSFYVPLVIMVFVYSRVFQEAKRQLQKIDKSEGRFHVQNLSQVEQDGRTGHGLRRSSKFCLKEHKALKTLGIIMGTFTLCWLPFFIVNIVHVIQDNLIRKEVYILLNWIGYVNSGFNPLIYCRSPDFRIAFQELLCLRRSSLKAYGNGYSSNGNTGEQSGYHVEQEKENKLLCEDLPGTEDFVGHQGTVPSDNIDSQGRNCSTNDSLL
ALR H2O2 inh: human ALR oxidase inhibition via reduced H2O2 | purified ALR, DTT oxidation, H2O2 HRP-luminol luminescence | inhibition, % (concentration not given with the values) | actives 3.8% (n = 290,000);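 active = mean and each replicate at 75% or more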;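 note: stock transfer was 7.5 nL into about 7.5 µL; 0% = neutral wells and 100% = wells with inactivated enzyme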
UCH37 inh: human UCH37 deubiquitinating enzyme inhibition. Q9Y5K5. purified proteasome/UCH37, Ub-AMC cleavage fluorescence. inhibition, % (concentration not given with the values). actives 0.33% (n = 330,000). AID 588478;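 active = mean of two replicates above 20%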;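 note: 0% = compound-free wells with enzyme and 100% = wells lacking proteasome; stock transfer was 100 nL into about 20 µL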
Target sequence (Q9Y5K5 whole entry, looked up): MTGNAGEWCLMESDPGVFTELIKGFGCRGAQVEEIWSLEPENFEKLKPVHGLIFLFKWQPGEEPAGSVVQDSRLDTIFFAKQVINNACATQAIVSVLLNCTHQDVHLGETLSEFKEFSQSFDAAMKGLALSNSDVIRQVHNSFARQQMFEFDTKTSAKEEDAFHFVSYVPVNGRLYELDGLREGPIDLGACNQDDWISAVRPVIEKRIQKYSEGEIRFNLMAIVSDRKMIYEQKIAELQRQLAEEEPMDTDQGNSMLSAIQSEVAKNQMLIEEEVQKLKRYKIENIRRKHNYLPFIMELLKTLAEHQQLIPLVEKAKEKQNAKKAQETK
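Material: Human UCH37 enzyme supplied as purified proteasome complex | Schedule: 30 min compound-proteasome preincubation then 25 min substrate reaction, room temperature | Detection: AMC fluorescence from Ub-AMC cleavage, excitation 355 nm, emission 460 nm | Benchmarks: Wells without proteasome as full block, compound-free enzyme plus substrate as uninhibited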
Ecoli growth: E. coli growth inhibition | Escherichia coli growth, OD600, 23 h; hits give low values | OD600 absorbance (test concentration not listed) | actives 0.21% (n = 330,000);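 active = OD600 absorbance below the run mean of sample wells minus 3.6 SD, in any replicate, cut at about 0.56 in these data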;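 note: stock transfer was 300 nL into about 60 µL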
HNF4A DNA FP: change in binding of human HNF4 alpha to DNA. HNF4a-FITC DNA binding, fluorescence polarization, 1 h. activity change, % at 10 µM. actives 0.3% (n = 360,000). AID 1224865; in the data active = activity change above about 30%, passing the limit was not always enough;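 note: controls were the assay level and a saturating level of protein; the project sought stronger binding though the title names inhibitors; some compounds called inactive have numbers as strong as hits; positive values seem to mean higher polarization but the record does not say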
FGF22 binding: shifts melting point of recombinant human FGF22. actives 1.5% (n = 340,000). calls only at 9.99 µM. Q9HCT0. recombinant FGF22 thermal shift, SYPRO orange fluorescence; percent of sucrose octasulfate shift, DMSO zero;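 active = melting point raised past a set limit in the mean and every replicate; three in four hits are not shown here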
Target sequence (Q9HCT0 whole entry, looked up): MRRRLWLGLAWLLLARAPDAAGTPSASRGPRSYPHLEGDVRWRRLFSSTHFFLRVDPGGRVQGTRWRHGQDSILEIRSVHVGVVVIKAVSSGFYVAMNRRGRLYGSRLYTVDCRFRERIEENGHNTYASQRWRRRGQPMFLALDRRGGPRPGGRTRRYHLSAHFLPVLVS
The depositor's hits bear a star; i = inactive; / = no result given; + = active, no number. The list is partial; count on the stated rates, not on these rows.

Compound	LANA-H2B inh	Beta2AR agonist	ALR H2O2 inh	UCH37 inh	Ecoli growth	HNF4A DNA FP	FGF22 binding
NC(=O)c1ccc(NC(=O)CN2C(=O)NC3(CCCCCCC3)C2=O)cc1	7.4	-2	12	2.5	0.71	5.7	i
O=C(NCC1CCCO1)c1cc(C(=O)C2CCCCC2)c[nH]1 (stereo unspecified)	-3.8	-3	/	2.4	0.68	2.8	/
COc1ccccc1NC(=O)c1c(C)nn(-c2ccccc2)c1Cl	-3.2	3	-12	-1.1	0.71	1.9	i
CC(=O)c1c[nH]c(C(=O)NCC2CCCO2)c1 (stereo unspecified)	7.2	-2	-7	4.8	0.72	-0.9	/
CSc1ccc(NC(=O)c2cccnc2)cc1C#N	0.8	1	-2	3.3	0.65	2.3	i
COc1cc(OC)cc(C(=O)N(Cc2cc3cc(C)ccc3[nH]c2=O)C(C)C)c1	-0.1	1	-7	-1.3	0.68	0.2	/
CC(C)CNC(=O)C1CCN(Cc2ccc(OCc3ccccc3)cc2)CC1	-1.0	-4	1	1.3	0.68	0.2	/
C=CCN1C(=O)C(Cc2cccc(Cl)c2)S/C1=N/N=C/c1ccco1 (stereo unspecified)	-5.7	18	-3	/	/	-0.2	i
O=C(CSc1ccc(-c2ccccc2)nn1)NCC1CCCO1 (stereo unspecified)	-2.3	-2	-1	-0.7	0.66	2.3	i
O=C(NC1CCCCC1)c1ccccc1NC(=O)C1CC(=O)N(c2ccccc2)C1 (stereo unspecified)	2.8	-10	-3	1.5	0.72	7.3	/
CN(C)C(=O)N1CCN(C(=O)N(C)C)CC1	2.8	3	-20	-0.5	0.68	-2.2	/
Cn1cc(S(=O)(=O)NCc2cccs2)c(=O)n(C)c1=O	-2.3	-1	-4	1.9	0.7	2.8	i
C=CCNC(=O)N1CCC(CO)(Cc2ccc(Cl)cc2)CC1	-0.1	4	1	-0.3	0.66	-7.5	i
COc1cc2c(cc1OC)C(C)N(C(=O)Cn1ncc3c1-c1ccccc1OC3)CC2 (stereo unspecified)	-2.1	5	-73	1.0	0.72	1.6	i
CC(C)[C@H](NC(=O)[C@H](Cc1ccccc1)n1c(=O)[nH]c2ccccc2c1=O)C(=O)N1CCC[C@@H]1C(=O)O	-3.5	2	/	2.4	0.76	-0.8	/
O=C(c1cc2ccccc2o1)N(Cc1ccco1)Cc1cccs1	-1.2	22	6	1.5	0.69	7.2	/
Cc1ccc(NC(=O)CCS(=O)(=O)c2cccc3nonc23)c(Br)c1	-3.8	-4	/	5.1	0.7	-2.3	i
O=C(Cn1c(=O)n(-c2ccc(F)cc2)c(=O)c2sccc21)N1CCCC1	1.9	8	-4	1.5	0.61	2.2	i
CCN(c1cccc(C)c1)S(=O)(=O)c1ccc2c(c1)NC(=O)CS2	-0.8	3	-16	1.9	0.68	-0.6	i
CC1(C)CC(=O)C=C(NCCc2ccc(S(N)(=O)=O)cc2)C1	3.1	2	5	4.9	0.8	1.8	/
O=C(NCC1CCCO1)c1cncc(Br)c1 (stereo unspecified)	-1.4	-5	-18	4.7	0.66	1.2	/
O=C(Nc1ccccc1N1CCN(C(=O)c2ccc(Cl)cc2)CC1)c1cccc([N+](=O)[O-])c1	0.3	-5	/	7.2	0.7	-1.2	i
CCCN(CC(=O)Nc1ccccc1C)C(=O)c1ccc(N2CCCC2=O)cc1	1.0	-5	0	0.5	0.69	2.6	i
CC1CCCCC12NC(=O)N(CC(=O)N1CCN(c3ccccc3)CC1)C2=O (stereo unspecified)	0.8	2	34	0.7	0.7	-1.6	i
Cc1ccc(N2CCN(C(=O)c3ccccc3F)CC2)c(C)c1	-1.3	-9	-3	0.0	0.74	-0.6	i
Cc1sc2nc(SCc3nc(-c4ccccc4)no3)n(-c3ccccc3)c(=O)c2c1C	/	22	/	2.8	0.71	-3.9	/
S=C(NCC(c1ccco1)N1CCCC1)Nc1ccccc1 (stereo unspecified)	-9.9	1	2	1.1	0.65	1.7	/
CN(CC(=O)Nc1ccc(F)cc1)C(=O)c1ccccc1Sc1ccccc1C#N	/	2	/	3.5	0.68	0.3	i
O=C(NCC(=O)N1CCCC1)c1cccs1	2.1	1	0	1.7	0.7	4.6	i
COc1ccc(C(CNC(=O)C(C)(C)Oc2ccc(Cl)cc2)N2CCOCC2)cc1 (stereo unspecified)	/	1	/	-0.8	0.68	2.0	/
COc1ccc2nc(NC(=O)c3c(C)noc3C)sc2c1	i	8	-7	-37	0.66	2.5	i
Cc1cc(C)nc(-n2nc(C)c3c(C(F)(F)F)cc(=O)[nH]c32)n1	-0.3	-13	-3	0.6	0.7	-1.4	/
CC(=O)Nc1ccc(NC(=O)C(C)OC(=O)CCCOc2ccc(Cl)c(C)c2)cc1 (stereo unspecified)	-1.7	-4	0	0.0	0.69	-0.9	i
Cc1c([N+](=O)[O-])c(C/C=N/O)nn1C	/	-3	/	/	/	-0.1	i
Cc1ccccc1N(CC(=O)O)S(C)(=O)=O	2.9	4	-1	-7.8	0.75	14	/
CSc1nc(O)c(C(c2ccccc2)c2c(O)nc(SC)[nH]c2=O)c(=O)[nH]1	3.0	-5	47	0.9	0.69	-0.7	i

3 compounds already listed, ordered by the number in LANA-H2B inh, largest number first:
compound | LANA-H2B inh
Cc1cc(C)nc(-n2nc(C)c3c(C(F)(F)F)cc(=O)[nH]c32)n1 | -0.3
CC(=O)Nc1ccc(NC(=O)C(C)OC(=O)CCCOc2ccc(Cl)c(C)c2)cc1 (stereo unspecified) | -1.7
S=C(NCC(c1ccco1)N1CCCC1)Nc1ccccc1 (stereo unspecified) | -9.9

The list goes on.
Compound	LANA-H2B inh	Beta2AR agonist	ALR H2O2 inh	UCH37 inh	Ecoli growth	HNF4A DNA FP	FGF22 binding
COc1ccc(NC(=O)CC(CC(=O)O)c2cc(OC)c(OC)c(OC)c2)cc1 (stereo unspecified)	-2.6	-1	-26	5.1	0.7	1.2	/
C/C(=N\NC(=O)c1ccc(COc2ccccc2)cc1)c1ccncc1	0.4	3	-20	/	/	4.2	i
CSc1ncccc1C(=O)NC1CCCc2c1cnn2-c1ccc(C)c(C)c1 (stereo unspecified)	-0.2	10	4	-0.2	0.72	-1.9	i
CCc1nn(CCCC(=O)NCc2ccc(C)cc2)c(=O)c2cc3occc3n12	0.9	-11	-2	2.2	0.73	1.9	i
COCCCn1cc(C(=O)c2cc(OC)ccc2OCC(=O)N2CCCCC2C)cc(C#N)c1=O (stereo unspecified)	2.2	-8	0	8.6	0.7	-0.1	i
Cc1cccc(NC(=S)N=Nc2c(O)[nH]c3ccccc23)c1	0.9	0	9	7.6	0.65	-7.3	/
CCn1nc(C)c(CNCc2cn[nH]c2-c2cc3ccccc3o2)c1C	6.1	3	-3	2.2	0.68	2.3	i
C=CCn1c(O)c(N=Nc2ccccc2)c2ccccc21	0.5	1	-2	/	/	0.1	i
Cc1ccc2c(C(=O)N3CCN(c4ccccc4)CC3)cc(-c3cccnc3)nc2c1C	-1.2	-6	/	0.5	0.73	-1.0	i
COc1ccc(C(=O)NCC(=O)N/N=C(\C)Cc2ccccc2)cc1	1.1	-6	7	/	/	-2.3	i
O=S(=O)(c1cccc(S(=O)(=O)N2CCOCC2)c1)N1CCCCCC1	-2.0	-3	-3	0.5	0.68	2.2	i
Cc1ccc(CNC(=O)Nc2ccc(F)cc2F)n1C	-1.5	-1	-7	-3.3	0.7	1.9	i
COc1ccc(NC2=Nc3ccccc3N3C2=Nc2c(c(C)nn2-c2ccc(C)cc2)C3c2cccnc2)cc1 (stereo unspecified)	1.1	4	-7	-25	0.66	-1.0	/
O=C(CCCCCBr)N1CCC(CC2CC(c3ccc(Cl)cc3)=NO2)(C(=O)NCC2CCCCC2)CC1 (stereo unspecified)	-0.8	-9	-4	4.2	/	0.4	i
CCC(C)OC(=O)C1C(c2ccccc2)C(C(=O)O)C1c1ccccc1 (stereo unspecified)	2.5	-1	-3	-2.6	0.7	-0.2	/
COC(=O)CCC(=O)N1CCc2cc(S(=O)(=O)N3CCN(c4ccccc4Cl)CC3)ccc21	/	5	/	2.1	0.74	1.7	/
CC(CCc1ccccc1)NC(=O)COC(=O)CC1CC2CCC1C2 (stereo unspecified)	-3.6	-8	-2	1.6	0.73	-3.7	/
CCOc1ccccc1N1CCN(C(=O)CCCc2nc3ccccc3s2)CC1	-2.2	1	/	2.3	0.69	-3.0	i
COc1ccc(CNS(=O)(=O)c2ccc(F)cc2Br)cc1	/	0	/	-1.5	0.69	0.5	i
CCOC(=O)C1(Cc2ccccc2)CCN(Cc2ccc(C)s2)CC1	-3.4	3	-2	4.4	0.62	2.2	i
C=CC[C@@H]1Cc2c(Br)ccc(Br)c2[C@@H](CC=C)N1	-1.8	14	-17	4.7	0.64	1.9	/
CC(/C=N/O)Cc1ccc2c(c1)OCO2 (stereo unspecified)	2.9	2	/	/	/	-2.9	/
CCCSc1nn2c(=O)c3ccccc3nc2s1	-1.7	-3	/	0.3	0.73	0.3	/
OCCCNc1ncnc2scc(-c3ccc(Cl)cc3)c12	4.5	4	-8	2.5	0.68	0.4	i

A few values from above.
HNF4A DNA FP, CN(CC(=O)Nc1ccc(F)cc1)C(=O)c1ccccc1Sc1ccccc1C#N is entered as 0.3
UCH37 inh, O=C(NC1CCCCC1)c1ccccc1NC(=O)C1CC(=O)N(c2ccccc2)C1 (stereo unspecified) is entered as 1.5

More records:
Compound	LANA-H2B inh	Beta2AR agonist	ALR H2O2 inh	UCH37 inh	Ecoli growth	HNF4A DNA FP	FGF22 binding
CC(C)NC(=O)c1c2c(nc3ccccc13)CCCC2	0.9	-3	-12	-1.8	0.77	-3.8	/
O=c1ccc(S(=O)(=O)N2CCCC2)cn1Cc1nc(-c2ccc(F)cc2)no1	/	7	/	-0.3	0.69	0.5	i
CCn1c(SCc2nc3sc(C(=O)O)c(C)c3c(=O)[nH]2)nnc1-c1ccc(Cl)cc1	+	0	-4	1.1	0.68	-2.8	i
Cc1ncc([N+](=O)[O-])n1CCOC(=O)NC(NCc1ccccc1Cl)C(Cl)(Cl)Cl (stereo unspecified)	-2.5	0	-16	4.9	0.65	0.9	/
COc1cc(C)c(Cl)c(C)c1S(=O)(=O)NCc1cccnc1	-0.7	-4	-3	1.2	0.66	1.2	/
COCCCN1C(=O)C(=O)/C(=C(/O)c2ccc(OC)cc2)C1c1cccc(OC)c1 (stereo unspecified)	0.5	-11	-16	3.5	/	1.5	/
CC(C)CCN1CC(O)=C(c2nc(-c3ccc(Cl)cc3)cs2)C1=N	-2.8	-25	-9	-2.0	0.77	-2.2	/
Cc1cc(=O)oc2c(C)c(OCC(=O)N3CCN(c4ccc(F)cc4)CC3)ccc12	0.6	-10	-1	2.5	0.7	1.9	i
N#Cc1ccccc1NC(=O)CSc1nccn1CCc1ccccc1	0.6	0	-2	3.6	0.74	5.3	/
NS(=O)(=O)c1ccc(CNc2ccc3ccccc3n2)cc1	4.7	2	-6	-17	0.71	1.1	i
Cc1oc(-c2cccc(Cl)c2)nc1CN1CCCC(C(=O)NC(C)c2ccc3c(c2)OCCO3)C1 (stereo unspecified)	1.4	3	-19	4.8	0.76	1.9	/
O=C1[C@@H]2Cc3c([nH]c4ccccc34)CN2C(=O)CN1CCCCCO	-5.8	-4	-14	2.8	0.61	3.4	i
O=C(NCC(=O)N1CCN(Cc2ccccc2)CC1)c1ccc(Br)cc1	-1.5	-4	-2	0.4	0.67	0.9	i
Cc1noc(C)c1CSc1nnc(-c2c[nH]c3ccccc23)n1-c1ccc(Cl)cc1	0.0	0	-1	2.2	0.74	1.9	/
Cc1nnc(NC(=O)c2ccc(Br)cc2)s1	-2.3	5	/	0.1	0.74	-0.8	/
Cc1ccc(-c2nc(CS(=O)CC(=O)NCCCN3CCN(Cc4ccccc4)CC3)c(C)o2)cc1 (stereo unspecified)	0.3	-13	99*	-0.6	0.64	-3.9	i
